CDC25B CDK2 inh = human CDC25B-CDK2/CyclinA binding inhibition. AID 1259370. HTRF CDC25B-CDK2/CyclinA binding, anti-His/anti-Flag; hits give high values. z-score (concentration not given with the values). 94,000 tested, 0.72% active;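 further: score is relative to mean and SD of negative controls; strong numbers were not always called active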
HIV TAR-Tat = HIV-1 TAR-Tat binding disruption. z-score (no concentration beside the values). 100,000 tested, 0.6% active. HIV-1 TAR RNA, Tat peptide displacement FRET; hits give high values;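 further: score is relative to mean and SD of negative controls; some compounds called inactive have numbers as strong as hits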
* hit, by the source's call; / = no result given.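 How the source made its calls: active means z-score from 3 up in half or more of its runs; inactive means the rest.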

entry	mol	CDC25B CDK2 inh	HIV TAR-Tat
1	O=C(OC1OCCOC1OC(=O)c1ccc([N+](=O)[O-])cc1)c1ccc([N+](=O)[O-])cc1 (centres undefined)	-0.36	/
2	Cc1cc(COC(=O)Nc2ccc(Cl)cc2)no1	-0.52	/
3	FC(F)(F)c1cc(-c2ccc3c(c2)OCO3)n[nH]1	-1.9	/
4	CCOC(=O)C1CCCN(c2c(NCc3cccs3)c(=O)c2=O)C1 (centres undefined)	-1.4	0.85
5	CCOc1ccccc1-c1nnc(-c2ccc3c(c2)OCO3)o1	-2.5	0.69
6	O=C(c1nn2c(C(F)(F)F)cc(-c3ccccc3)nc2c1Cl)N1CCOCC1	0.23	0.06
7	Cc1cc(C)nc(N2CCN(c3nc(C)cc(C)n3)CC2)n1	0.02	-0.24
8	Cc1nc(-c2ccccn2)nc(SCC(=O)N2CCOCC2)c1Cl	-1.7	/
9	COC(=O)CCSc1nc2c(c(=O)[nH]1)C(C)(C1CCCCC1)Cc1ccccc1-2 (centres undefined)	-2	0.04
10	COc1ccc(NC(=O)CSc2nnnn2-c2ccc(OC)cc2)cc1	-1.2	-0.15
11	CC(C)(CC(=O)O)CC(=O)Nc1ccc2c(c1)C(=O)OC2	-0.64	/
12	Cc1cc(NC(=O)CC(C)(C)CC(=O)O)n(C)n1	-2	/
13	O=C(CCSc1nc(-c2ccco2)cc(C(F)(F)F)n1)N1CCCc2ccccc21	-1.7	0.73
14	Cc1cc(C)c(S(=O)(=O)Nc2nc3ccccc3s2)c(C)c1	0.68	-1.1
15	CC1=C(C(=O)O)N2C(=O)[C@@H](NC(=O)[C@H](N)C3=CCC=CC3)[C@H]2SC1	/	1.8
16	N#CC1=C(N)Oc2cc(O)ccc2C1c1ccc(OCc2ccccc2F)cc1 (centres undefined)	0.83	/
17	CC1=C(c2cccc(Br)c2)S(=O)(=O)N=C1Nc1cccnc1	-1.5	-0.81
18	O=C(C1COc2cc(S(=O)(=O)N3CCc4ccccc43)ccc2O1)N1CCOCC1 (centres undefined)	/	0.15
19	Cn1c(-c2csc(-c3cccs3)n2)n[nH]c1=S	-3.2	/
20	COc1ccc(OC)c(C(=O)c2oc3cc(N)ccc3c2C)c1	/	-1.2
21	COc1ccccc1N1CCN(C(=O)CSC2=Nc3ccccc3C3=NC(C(C)C)C(=O)N23)CC1 (centres undefined)	/	0.48
22	CCS(=O)(=O)N1CCC2(CC1)OC(=O)C(C)=C2C(=O)N1CCC(N2CCCCC2)CC1	/	-0.31
23	CCCNC(=O)CN1CCCn2nc(C)cc21	/	1.1
24	CS(=O)(=O)N1CCc2ccccc21	/	1.4
25	COc1cc2c(c(OC)c1)C(c1cc(F)cc(F)c1)CC(=O)N2 (centres undefined)	-2.5	3.2
26	COc1ccc(N2CC(C(=O)NCc3nnnn3-c3ccc(OC)cc3)CC2=O)cc1 (centres undefined)	/	0.6
27	CCn1c2ccccc2n2cc(-c3ccc(F)cc3)nc12	-2.6	0.34
28	CCN(CCCNc1ncnc2nc[nH]c12)c1cccc(C)c1	-1.9	/
29	CCc1nn2c(=O)c(NC(=O)c3ccc(Cl)cc3)cnc2s1	-1	-0.87
30	Cc1nc2c(c(C)nn2C(C)(C)C)c(C)c1CCC(=O)NCc1cccs1	-0.53	1.2
31	O=C1C2CC=C(Cl)CC2C(=O)N1CC1Cc2ccccc2CO1 (centres undefined)	-0.67	-0.07
32	CCN(CC)C1=NS(=O)(=O)C(c2ccc(F)cc2)=C1C	/	1.2
33	Cc1cc(C)c2c(c1)-c1cc(C)nn1C(c1cccs1)N2 (centres undefined)	-2.6	0.3
34	O=C1c2oc3ccccc3c(=O)c2C(c2ccc(O)cc2)N1Cc1ccc2c(c1)OCO2 (centres undefined)	0.72	-0.22
35	CCCOC(=O)C1=C(C)NC(=O)NC1c1ccc(Cl)cc1 (centres undefined)	-2.6	/
36	CCOC(=O)C(CC)SC1=NS(=O)(=O)c2ccccc2N1 (centres undefined)	/	1.2
37	CCN1CCCC1CNC(=O)c1nnc(-c2ccc3c(c2)OCO3)o1 (centres undefined)	-0.18	1.5
38	Cc1cc(C)n(CC(=O)Nc2ccc(Br)cc2)c(=O)c1C#N	/	0.58
39	Cn1c(=O)c2c(nc(Sc3nc4ccccc4[nH]3)n2C)n(C)c1=O	0.27	/
40	CC1CCCC(C)N1CCCNC(=O)C1CCN(c2ncnc3c2nc2n3CCCCC2)CC1 (centres undefined)	/	0.92
41	Nc1sc2c(c1C(=O)Nc1cccc(Cl)c1)CCCCC2	0.25	-16
42	Cc1cc(C(=O)NCc2ccc3c(c2)OCO3)c(C)o1	0.8	/
43	Cc1cc(C)c(CSc2nccn(-c3cccc(Cl)c3)c2=O)c(C)c1	/	0.07
44	CC(C)Cc1nn2c(=O)cc(CSc3ncn[nH]3)nc2s1	/	1.5
45	Cc1cccc(OCc2nc3ccccc3n2CC(O)COc2ccccc2)c1 (centres undefined)	0.57	0.45
46	O=C(NC1CCCCC1)N1CCN(Cc2nc3cccnc3n2-c2ccccc2)CC1	/	0.79
47	Cc1ccc(C2C(C(=O)c3ccc(C)o3)=C(O)C(=O)N2Cc2cccnc2)cc1 (centres undefined)	-1	0.96
48	Cc1ccc(S(=O)(=O)[C@H]2CS(=O)(=O)C[C@@H]2N2CCCCC2)cc1	-1.8	-1.4
49	O=C(Cn1ncc2ccsc2c1=O)NC1CC1	-0.62	/
50	O=[N+]([O-])c1cc(C(F)(F)F)ccc1SCc1cccs1	-1.9	/
51	Cc1cc(NC(=O)c2noc3c2CCc2ccccc2-3)n(-c2ccccc2)n1	0.34	/
52	Cc1cc2nc(CSCc3ccco3)cc(=O)n2o1	0.09	0.4
53	COc1ccc(N2CC(C(=O)Nc3nnc4n3CCCS4)CC2=O)cc1 (centres undefined)	/	0.51
54	CCOC(=O)N1CCC(n2c(SCC(=O)N3CCC(C)CC3)nc3ccccc3c2=O)CC1	/	1.8
55	O=C(Cn1cc(C(=O)c2ccco2)c2ccccc21)NCc1ccco1	-0.66	-0.15
56	O=c1oc2cc(OCc3cc4c(cc3Cl)OCO4)ccc2c2c1CCC2	-1.5	/
57	Cc1cc(C)n2ncc(C(=O)Nc3cc(C)on3)c2n1	/	-1.4
58	CC1CCCN(S(=O)(=O)c2cccc(N)c2)C1 (centres undefined)	-1.1	2.4
59	Cn1c(=O)c2c(nc(NCc3ccccc3)n2C)n(C)c1=O	-3.2	0.3
60	CCOC(=O)c1c(NC(=O)CNC(C)(C)C)sc2c1CCCCC2	-1.5	0.89

Following part:
entry	mol	CDC25B CDK2 inh	HIV TAR-Tat
61	Cc1c(C(=O)C(=O)NCC2COc3ccccc3O2)c2ccccc2n1C (centres undefined)	-2.2	1.3
62	Cc1cc2c(cc1S(=O)(=O)NCCC1=CCCCC1)OCCN2C	/	2.7
63	CCN1CCN(CCNC(=O)c2cnc(N3CCOCC3)nc2)CC1	/	1.6
64	CC(C)(C)S(=O)(=O)CC(N)=S	-0.72	/
65	O=C1c2[nH]nc(-c3ccccc3O)c2C(c2ccc(Cl)cc2)N1CC1CCCO1 (centres undefined)	-0.22	0.85
66	CC1c2cccn2CCN1C(=O)Nc1cc(F)ccc1F (centres undefined)	/	-5
67	COC(=O)Cn1c(SCCOc2ccc(Cl)cc2)nc2ccccc21	0.17	0.75
68	COc1ccc(C2N(c3ccc(-c4ccccc4)cc3)C(=O)N3CCCN23)cc1 (centres undefined)	-1.9	0.89
69	Cc1nn(-c2nc3ccccc3o2)c2c1C(c1ccc(C(=O)O)cc1)CC(=O)N2 (centres undefined)	/	0.18
70	COc1cccc(C2C(C(=O)OC(C)C)=C(C)Nc3nc4ccccc4n32)c1OC (centres undefined)	-2.2	0.68
71	Cc1ccc(-c2nc(=O)[nH]c3ccccc23)cc1	-1.4	0.66
72	CC(=O)N1CCC2(CC1)OC(=O)C(C)=C2C(=O)NCCCN1CCN(C)CC1	/	0.54
73	CN(Cc1ccccc1)c1c(-c2ccccc2)c(=O)c1=O	/	2
74	COC(=O)C1=C(Nc2ccccc2NS(=O)(=O)c2ccc(OC)cc2)CSC1	-0.53	/
75	CCOCCCNC(=O)c1cnn2c(C)cc(C)nc12	/	0.52
76	Cc1oc2ncnc(N3CCOCC3)c2c1C(=O)N1CCN(c2ccccc2)CC1	/	0.59
77	O=S(=O)(c1ccccc1)N(Cc1nc(-c2ccc(Cl)cc2)no1)C1CCCCC1	-1.2	-0.32
78	c1ccc(CN2CCN(c3ncnc4c3nc3n4CCCCC3)CC2)cc1	/	0.87
79	Cc1ccc(C2OC(=O)c3ccccc32)cc1 (centres undefined)	-3.8	2
80	Cc1ccccc1OCc1nc(C#N)c(N2CCC(C)CC2)o1	1.9	1.4
81	CCCc1nn2c(=O)cc(COC(=O)COc3ccc(Cl)cc3)nc2s1	/	-0.76
82	CCN1C2=NC(=O)CN2c2ccccc21	-0.45	/
83	CC(C)C(=O)Nc1nn2c(-c3ccco3)nnc2s1	-1.1	1.3
84	Cc1cc2oc(C(=O)Nc3sc4c(c3C#N)CCCC4)cc(=O)c2cc1C	-1.4	2.6
85	CCOC(=O)C(N)CSC1CCCCO1 (centres undefined)	1.8	1.7
86	COc1cc(NC(=O)C2=CSCCO2)c(Cl)cc1C(=O)NC1CC1	/	1.8
87	O=C(C1CCC(=O)N1S(=O)(=O)c1ccccc1)N1CCN(c2ccccc2F)CC1 (centres undefined)	/	2.1
88	C=CCn1c(SCC(=O)N2CCCCC2)nc2sc3c(c2c1=O)CCC3	-1.2	/
89	Cc1cc2nc3c(c(=O)n2[nH]1)CSC3	-1.4	/
90	COc1ccc(NS(=O)(=O)c2ccc(-c3ccc(=O)[nH]n3)s2)c(OC)c1	/	-0.69
91	CCN1CCn2c1nc(N1CCOCC1)nc2=O	-1.3	2.1
92	Cc1nn(CC(=O)NCC2CCCO2)c2ccccc12 (centres undefined)	-1.4	1.6
93	COc1cc(OC)c(NC(=O)NC(C)c2c(-n3cccc3)sc(C)c2C)cc1Cl (centres undefined)	1.1	0.05
94	C=C1C2CC[C@@]3(C)[C@H](c4ccoc4)OC(=O)C[C@]13O[C@H]1CC(O)C(C)(C)C(CC(=O)OC)[C@@]21C (some centres undefined)	/	2.3
95	CC(=O)N1c2ccc(S(=O)(=O)N3CCCC(C(=O)N4CCCC(C)C4)C3)cc2CC1C (centres undefined)	/	0.83
96	Fc1ccc(-n2ncc3c(NCc4cccnc4)ncnc32)cc1	/	0.29
97	O=C1CCSc2ccc(S(=O)(=O)NCCC3=CCCCC3)cc2N1	/	0.98
98	CN(C)c1cccc(N(C)C)c1CNC(=O)NC(=O)c1c(F)cccc1F	0.24	/
99	Cn1c(=O)c2c(SCc3ccccc3F)nc(-c3cccs3)nc2n(C)c1=O	-0.7	/
100	O=C(Cn1cc(S(=O)(=O)c2ccccc2)c(=O)c2cc(Br)ccc21)Nc1ccccc1	-2.2	2.3

Among those listed so far, three have a tert-butyl group:
entry	mol	CDC25B CDK2 inh	HIV TAR-Tat
30	Cc1nc2c(c(C)nn2C(C)(C)C)c(C)c1CCC(=O)NCc1cccs1	-0.53	1.2
60	CCOC(=O)c1c(NC(=O)CNC(C)(C)C)sc2c1CCCCC2	-1.5	0.89
64	CC(C)(C)S(=O)(=O)CC(N)=S	-0.72	/

Shown with values under each structure: entries from further up.
Sequence of screens – CDC25B CDK2 inh	HIV TAR-Tat
[89] Cc1cc2nc3c(c(=O)n2[nH]1)CSC3
 : -1.4	/
[96] Fc1ccc(-n2ncc3c(NCc4cccnc4)ncnc32)cc1
 : /	0.29
[84] Cc1cc2oc(C(=O)Nc3sc4c(c3C#N)CCCC4)cc(=O)c2cc1C
 : -1.4	2.6

The listing picks up, repeating the 5 entries before the break.
entry	mol	CDC25B CDK2 inh	HIV TAR-Tat
96	Fc1ccc(-n2ncc3c(NCc4cccnc4)ncnc32)cc1	/	0.29
97	O=C1CCSc2ccc(S(=O)(=O)NCCC3=CCCCC3)cc2N1	/	0.98
98	CN(C)c1cccc(N(C)C)c1CNC(=O)NC(=O)c1c(F)cccc1F	0.24	/
99	Cn1c(=O)c2c(SCc3ccccc3F)nc(-c3cccs3)nc2n(C)c1=O	-0.7	/
100	O=C(Cn1cc(S(=O)(=O)c2ccccc2)c(=O)c2cc(Br)ccc21)Nc1ccccc1	-2.2	2.3
101	O=C(CN1C(=O)CSc2ccc(S(=O)(=O)N3CCOCC3)cc21)Nc1ccccn1	/	1.4
102	N#C/C(=C\c1cccn1-c1ccc(Cl)cc1)C(=O)O	-1	/
103	O=C(CSc1nc2c([nH]c3ccccc32)c(=O)n1-c1ccccc1)Nc1ccc2c(c1)OCO2	/	2.1
104	COC(=O)c1c(-c2ccc(Cl)cc2)noc1N1CCN(C)CC1	-0.12	-0.01
105	CCOc1ccc(-c2nc3c(C#N)c[nH]n3c2NC2CCCCC2)cc1	-1.8	1
106	O=c1c(SCc2ccc(F)cc2)nccn1-c1ccccc1	/	-0.12
107	COCCCNc1nc(Nc2ccc(OC)c(Cl)c2)c2cnn(C)c2n1	/	0.95
108	CCn1c(C(=O)N2CCC(C(=O)N3CCN(c4cc(C)ccc4C)CC3)CC2)cc2sccc21	0.11	/
109	O=C(c1ccc2ncsc2c1)N1CCOCC1	-2	/
110	CC(C)(Oc1ccc(Cl)cc1)C(=O)Nc1ccc2nccnc2c1	-3	/
111	CCOC(=O)N1CCN(C(=O)C(C)n2nc(C)c3sc4ccccc4c3c2=O)CC1 (centres undefined)	-1.7	0.97
112	CC(C)c1nn2c(=O)cc(COC(=O)COc3ccccc3)nc2s1	/	-0.21
113	CN(C)CCN(C(=O)CCOc1ccccc1)c1nc2c(F)cccc2s1	/	1.4
114	Cc1c(C(=O)NCc2cccs2)oc2ccc3c(c12)C(=O)CC1(CCC(C)CC1)O3 (centres undefined)	-0.39	0.47
115	Cn1ncc2c(Nc3ccccc3)nc(NC3CCCCC3)nc21	/	0.82
116	COc1ccc(C2N=C(N)Nc3nc4ccccc4n32)cc1OC (centres undefined)	-0.36	0.07
117	Cc1cc(=O)oc2c(-c3ccccc3)n[nH]c(=O)c12	-1.6	/
